miR-21 reporter: raises the signal of a miR-21 reporter; 340,000 tested, under 10 active; Potency, µM (series often up to 38.3 µM), for the others: top-dose reporter change, positive = more light; AID 2288; HeLa miR-21 FLuc reporter, luciferase, 48 h; active = well fitted rising curve with a large enough effect; inconclusive = small, poorly fitted or top-dose-only effect; inactive = no such curve, though single readings can be large or run the other way;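 further: % of control where 0% means no effect; miR-21 action dims this reporter so a rising signal means less miR-21 action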
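Compounds were titrated across several concentrations (up to approximately 40 uM) and incubated 48 hours with HeLa miR-21-FLuc reporter cells (miR-21 target sequence downstream of FLuc, endogenous miR-21). Readout was firefly luciferase luminescence after lytic detection reagent.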
Rango complex inh: inhibitors of Rango-importin beta complex formation | AID 540263 | Rango CFP/YFP FRET sensor + importin beta, 45 min | actives 0.031% (n = 340,000) | Q14974 | Potency, µM (doses to about 92.2 µM), for the others: at the top dose inhibition of complex formation; active = rising FRET ratio curve, often small or poorly fitted; inconclusive = mostly compound fluorescence or quenching in the first reads; inactive = flat curves in all reads;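 further: potency means the concentration at half of the fitted maximal effect; 0% = DMSO wells and 100% = buffer wells lacking importin beta; nearly all actives have a fitted effect of over 15% in size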
Target sequence (Q14974 whole entry, looked up): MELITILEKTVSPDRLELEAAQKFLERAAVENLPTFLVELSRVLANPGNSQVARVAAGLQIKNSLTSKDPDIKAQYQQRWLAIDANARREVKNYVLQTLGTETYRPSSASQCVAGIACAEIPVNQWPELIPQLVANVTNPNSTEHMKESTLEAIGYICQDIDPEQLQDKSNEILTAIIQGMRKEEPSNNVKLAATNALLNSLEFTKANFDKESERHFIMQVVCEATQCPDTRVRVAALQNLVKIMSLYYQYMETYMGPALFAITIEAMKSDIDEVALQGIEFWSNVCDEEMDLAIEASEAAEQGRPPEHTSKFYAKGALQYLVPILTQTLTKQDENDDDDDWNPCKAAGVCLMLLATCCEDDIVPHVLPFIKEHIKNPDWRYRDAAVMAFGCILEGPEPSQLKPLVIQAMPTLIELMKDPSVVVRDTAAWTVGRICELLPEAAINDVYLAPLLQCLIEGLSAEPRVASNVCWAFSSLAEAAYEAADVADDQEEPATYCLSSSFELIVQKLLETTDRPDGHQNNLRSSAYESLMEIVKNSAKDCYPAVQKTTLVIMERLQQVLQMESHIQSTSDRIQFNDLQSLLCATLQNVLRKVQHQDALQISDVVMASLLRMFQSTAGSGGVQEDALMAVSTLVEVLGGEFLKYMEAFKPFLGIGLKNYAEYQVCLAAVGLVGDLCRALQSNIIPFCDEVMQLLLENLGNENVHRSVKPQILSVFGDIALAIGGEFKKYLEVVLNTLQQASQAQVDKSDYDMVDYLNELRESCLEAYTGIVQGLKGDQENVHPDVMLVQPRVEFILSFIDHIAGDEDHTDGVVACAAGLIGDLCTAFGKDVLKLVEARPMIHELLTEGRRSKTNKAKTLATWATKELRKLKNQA
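FRET biosensor Rango (snurportin 1 IBB between N-terminal EYFP and C-terminal Cerulean), 50 nM in PBS/1 mM DTT/0.02% Tween-20/0.1% BSA, preincubated 5 min RT with compound; 0.125 microM importin beta added, 45 min RT, CFP/YFP FRET ratio read.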
Rango dissoc inh: prevents RanGTP from dissociating the Rango-importin beta complex. actives 0.071% (n = 340,000). O95149+P62826. Biochemical FRET Rango-importin beta, RanGTP-induced dissociation. AID 540253. Potency, µM (highest dose often 46.1 µM), for inactives: top-dose activity change, negative = inhibition; active means falling FRET ratio curve, often poorly fitted, with flat reads before Ran was added; inconclusive means other falling curves, or compound fluorescence or quenching; inactive means flat or rising ratio curve;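 further: potency means the concentration at half of the fitted maximal effect; % of control where 0% means no effect; nearly all actives have a fitted effect of over 45% in size; -100% = wells without RanGTP and RCC1; the record marks most hits as doubtful in a second field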
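Quantitative HTS using a FRET biosensor: 0.1 uM Rango, 0.25 uM importin beta, 0.6 uM Ran, 2 mM GTP, 0.2 uM RCC1 final, PBS with DTT, Tween-20 and BSA. Post-read taken 45 min after Ran addition.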
GLA inh pH 4.5: alpha-galactosidase A (human) inhibition, pH 4.5; P06280; purified enzyme, 4-MU-alpha-Gal fluorescence, pH 4.5; activity change, negative = inhibition, % at 105 µM; 230,000 tested, under 10 active; AID 1467; inconclusive = small, poorly fitted or top-dose-only inhibition, or a rising curve; inactive = flat fitted curve, though single readings scatter; no compound was filed as active;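 further: 0% = full activity with enzyme and -100% = basal without enzyme; dose as in the result columns while the protocol names 77 µM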
The depositor's hits bear a star; ? = inconclusive; . = not tested or not shown; [ ] = remark or other dose.

miR-21 reporter	Rango complex inh	Structure	Rango dissoc inh	GLA inh pH 4.5
-0.9%	0.0%	Cc1ccc(S(=O)(=O)N[C@@H](CC(C)C)C(=O)N2CCC(C(=O)N[C@@H](Cc3ccccc3)C(=O)O)CC2)cc1	-4.2%	.
-1.2%	-1.6%	CC(C)[C@H](NC(=O)[C@H]1N2C(=O)c3ccccc3C2SC1(C)C)C(=O)NCc1ccco1 (some centres not stated)	-5.4%	.
6.3%	-1.8%	Cc1cc(C)cc(NC(=O)Oc2ccccc2N2CCCCC2)c1	12.8%	-4.2
-10.4%	10.5%	OCCCNc1nc(-c2ccc(Br)cc2)nnc1-c1ccc(Cl)cc1	-3.0%	-7.9
25.3%	-0.1%	O=C1C2C(c3ccccc3)CC=CC2[C@H](c2cccc([N+](=O)[O-])c2)N1Cc1ccccc1 (some centres not stated)	-9.5%	1.8
.	3.7%	CC1CCCCC12NC(=O)N(CC(=O)N1CCN(S(=O)(=O)/C=C/c3ccccc3)CC1)C2=O (configuration not stated)	6.2%	.
-2.9%	-17.1%	CC1CN(S(=O)(=O)c2cccc(C(=O)NCCCn3ccnc3)c2)CC(C)O1 (configuration not stated)	-0.1%	9.2
14.0%	-3.9%	COc1cccc(-c2nn(-c3ccccc3)cc2C(=O)Nc2nccs2)c1	-6.5%	-3.8
6.4%	0.7%	COc1ccc(S(=O)(=O)N(CC(=O)NCc2ccncc2)Cc2ccccc2)cc1	4.5%	.
-3.6%	?	N#Cc1nc(COc2ccccc2Cl)oc1NCc1ccco1	?	3.5
-2.4%	-1.8%	CC(C)(C)n1ncc2c(=O)n(CC(=O)N3CCN(c4ccccc4)CC3)cnc21	-12.1%	-1.4
-1.7%	0.1%	CC1=C(C(=O)N(C)C)C(c2ccccc2OC(F)F)NC(=O)N1 (configuration not stated)	-9.0%	-0.7
-0.5%	-3.6%	COc1ccccc1CNC(=O)C1CCN(S(=O)(=O)c2ccc3nc4c(c(C(=O)O)c3c2)CCCC4)CC1	-19.2%	.
12.8%	2.0%	Cc1nn(Cc2ccc(C(=O)NC(C)(C)C)o2)c(C)c1Br	-12.9%	2.0
14.2%	-2.7%	COc1ccc(C(=O)/C=C2/C(=O)Nc3ccccc32)cc1OC	4.8%	.
.	-1.4%	CC(=O)Nc1ccc(NC(=O)CSc2ncc(C(=O)Nc3ccc(Cl)cc3)c(=O)n2C)cc1	-10.8%	.
-25.5%	-1.1%	C=CCc1ccc(OCCOc2cccc3cccnc23)c(OC)c1	7.2%	-9.4
-4.9%	0.0%	CCn1c(SCC(=O)Nc2cccc(F)c2)nnc1-c1cc2cc(Br)ccc2o1	-4.3%	-3.2
-59.5%	0.2%	COC(=O)c1cccc(NS(=O)(=O)c2cccs2)c1C	10.6%	10.2
-15.2%	2.7%	Cn1nccc1C(=O)N1CCc2ccccc21	-13.1%	-11.4
-1.4%	-1.0%	CN(C)c1nc(-c2ccccc2)c2cc(Cl)ccc2n1	?	.
-4.0%	-1.0%	COc1cc2c(cc1OC)CN(CC(=O)NC(=O)NC1CCCCC1)CC2	6.7%	-5.7[21.1 µM]
12.2%	-4.2%	O=C(Cn1nc(-c2ccccc2)ccc1=O)Nc1ccc(N2CCN(C(=O)c3cccs3)CC2)cc1	-5.2%	-4.3
-3.0%	-5.0%	COc1ccc(-c2[nH]ncc2CN2CCC(c3ccncc3)CC2)cc1F	2.9%	-3.1
-1.6%	1.0%	COc1ccc(-n2c(=O)c3ccccc3c3ccccc3c2=O)c(OC)c1	-0.7%	3.7
-21.9%	5.5%	N=c1c2ccccc2nnn1-c1cccc(C(F)(F)F)c1	?	2.9
.	-0.6%	O=C(CCNC(=O)c1ccco1)NCCc1c[nH]c2ccccc12	-15.7%	.
-0.4%	2.3%	COc1cccc(NC(=O)CSc2nc3ccccc3c(=O)n2Cc2cccs2)c1	13.2%	-7.5
-1.3%	-1.1%	CCN(CCS(=O)(=O)c1ccc(Cl)cc1)C(=O)Nc1ccccc1	1.5%	6.3
-6.2%	-0.1%	C[C@H](NC(=O)c1nc[nH]c1C(=O)N[C@H](C)c1ccccc1)C(=O)OC(C)(C)C	-10.3%	-14.7
.	-0.7%	COc1ccc(NC(=O)CN(C)C(=O)c2cccnc2Sc2ccc(C)c(C)c2)cc1	11.6%	.
-9.3%	0.6%	CCCc1cc(-c2n[nH]c(=S)n2CC(C)C)cs1	12.1%	2.5
-22.0%	2.4%	CCc1ccc(NC(=O)C(C)OC(=O)C2CCC(=O)N2)cc1 (configuration not stated)	-11.8%	12.4
3.6%	-1.0%	Cc1c(Cc2ccc3c(c2)OCO3)sc(NC(=O)c2cccc3ccccc23)c1C(N)=O	-19.5%	-1.1
0.0%	-1.9%	CCC(C(=O)N1CC2(C)CC1CC(C)(C)C2)N1C(=O)c2ccccc2C1=O (configuration not stated)	12.3%	-6.3
17.8%	3.6%	C=CC[n+]1c(-c2ccc(C)cc2)csc1Nc1c(C)n(C)n(-c2ccccc2)c1=O	-5.2%	4.1
-1.8%	0.1%	COc1ccc(N(CC(=O)NCc2ccc(Cl)cc2)S(=O)(=O)c2c(C)noc2C)cc1	-11.2%	.
-34.5%	-0.5%	NC(=O)c1ccsc1NC(=O)COC(=O)c1ccccc1NCc1ccco1	-7.0%	18.5
-42.3%	-2.3%	Cc1nc(N)sc1C(=O)OCC(C)C	7.8%	3.7
.	-0.3%	CC(=O)Nc1sc(C)c(C)c1C(=O)OCC(=O)N(CCC#N)c1cc(C)cc(C)c1	8.9%	.
-33.9%	-1.4%	Clc1ccc(SCc2cc(-c3ccccc3)no2)cc1	14.1%	-19.7
-23.3%	-4.8%	O=C(OCC(=O)N1CCN(C(=O)c2ccco2)CC1)c1cccc(O)c1	-7.7%	.
-17.7%	4.2%	Cc1ccc(NC(=O)N2CCCN(Cc3ccc(F)cc3)C2)cc1C	2.0%	0.6
-24.1%	2.0%	COc1ccc(N=C2C(=O)N3CCCc4cccc2c43)cc1	6.1%	3.1
1.0%	-2.9%	Cn1c(=O)c2sccc2n2c(CCCC(=O)NCCc3ccccc3)nnc12	-2.5%	.
-4.1%	-0.9%	COc1ccc(C(=O)NC(=S)Nc2ccc3c4c(cccc24)CC3)cc1OC	-6.8%	-1.0
5.3%	-2.5%	CCOC(=O)C(CC)(CC)C(=O)/C=C/c1ccc(OC)cc1	17.3%	-11.4
0.5%	.	CCOc1ccccc1NC(=O)CC1SC(=N)N(c2ccccc2)C1=O (configuration not stated)	.	-3.1
-56.4%	-2.2%	Cn1cc(Br)c(C(=O)Nc2sc3c(c2C(N)=O)CCCC3)n1	-0.4%	.
-3.9%	?	CCN(CCn1cccn1)Cc1nc(-c2ccc(C(=O)OC)cc2)no1	5.6%	-5.9

Other results:
miR-21 reporter	Rango complex inh	Structure	Rango dissoc inh	GLA inh pH 4.5
-10.4%	3.4%	O=C(Cc1c(F)cccc1Cl)N/N=C/c1cccs1	-9.5%	.
2.6%	-1.8%	Cc1ccc(-n2c(SCC(=O)NCc3ccco3)nc3sc4c(c3c2=O)CC(C)(C)SC4)cc1	-10.5%	8.2
-10.2%	1.2%	COc1ccc(S(=O)(=O)NC(C)c2ccccc2)cc1C(=O)N1CCCCC1 (configuration not stated)	9.5%	.
-4.9%	0.5%	Cc1ccc2nc(C)c(C(=O)O)cc2c1	-9.3%	0.8
-4.3%	1.1%	Cc1nn(Cc2ccc(Cl)cc2)c(C)c1NC(=O)Cn1nc([N+](=O)[O-])c(Cl)c1C	-8.6%	-1.5
-2.1%	1.1%	Cc1cnn(CCC(=O)NNC(=S)NCC(C)C)c1	4.2%	6.3
-7.7%	1.7%	Cc1cc(C(=O)N2CCN(c3ncccn3)CC2)c(C)o1	15.7%	1.2
3.3%	.	CC(C)C(=O)N1CCC2(CC1)Oc1ccc(F)cc1C(=O)C21CC(c2cccnc2)=NO1 (configuration not stated)	.	-4.9
-0.2%	.	Cc1cnc(NC(=O)c2c(O)c3cccc4c3n(c2=O)CCC4)s1	.	6.5
-40.0%	0.8%	C#CCSc1nnc(-c2ccc([N+](=O)[O-])cc2)o1	12.5%	-4.6
-6.4%	1.5%	Cn1cccc1/C=N/n1cnnc1	1.6%	-4.2
-1.1%	0.8%	CCC(=NC(CC)CO)C1=C(O)CC(C)(C)CC1=O (configuration not stated)	-12.7%	5.0
?	?	COC(=O)c1c(-c2ccc3ccccc3c2)csc1NC(=O)Cc1ccc(OC)c(OC)c1	-22.4%	-9.3
-1.2%	2.7%	CC(C)NS(=O)(=O)c1ccc2c(c1)oc(=O)n2C	18.4%	1.5
.	-0.6%	COc1ccc(S(=O)(=O)N(C)C)cc1NC(=O)CN1CCN(C(=O)C2CC2)CC1	16.7%	.
-2.3%	0.2%	N/C(CC(=O)NC1CCCCC1)=N\OCC(=O)Nc1ccc(Cl)c(Cl)c1	1.2%	-2.7
?	0.9%	NC(=O)c1cc2ccncc2c2ccccc12	-20.9%	-2.7
-4.1%	-0.1%	CC(Oc1ccc2c3c(c(=O)oc2c1)CCC3)C(=O)NCc1cccnc1 (configuration not stated)	-6.1%	.
0.0%	6.6%	Cc1cc(Cl)ccc1OC(C)C(=O)NNC(=O)C1CCCCC1C(=O)O (configuration not stated)	12.4%	.
2.9%	-1.1%	C[C@H](NC(=O)C1CCN(S(=O)(=O)c2ccccc2)CC1)C(=O)NCc1ccccc1	0.7%	.
-48.2%	-4.2%	Cn1nc(/C=C/c2ccccc2)ccc1=O	-4.7%	2.0
14.8%	-0.9%	COc1ccc(CN2CCN(C(=O)CCC(=O)Nc3nnc(C(F)(F)F)s3)CC2)cc1F	-0.8%	.
21.7%	3.4%	COc1cc(C(=O)NCCOc2cc(C)ccc2C(C)C)cc(OC)c1OC	-6.2%	.

Quoted at random: 2 entries already listed.
miR-21 reporter	Rango complex inh	Structure	Rango dissoc inh	GLA inh pH 4.5
-1.2%	2.7%	CC(C)NS(=O)(=O)c1ccc2c(c1)oc(=O)n2C	18.4%	1.5
.	-0.6%	COc1ccc(S(=O)(=O)N(C)C)cc1NC(=O)CN1CCN(C(=O)C2CC2)CC1	16.7%	.

Molecules listed so far with a furan ring, fused or not (9):
miR-21 reporter	Rango complex inh	Structure	Rango dissoc inh	GLA inh pH 4.5
-1.2%	-1.6%	CC(C)[C@H](NC(=O)[C@H]1N2C(=O)c3ccccc3C2SC1(C)C)C(=O)NCc1ccco1 (some centres not stated)	-5.4%	.
-3.6%	?	N#Cc1nc(COc2ccccc2Cl)oc1NCc1ccco1	?	3.5
12.8%	2.0%	Cc1nn(Cc2ccc(C(=O)NC(C)(C)C)o2)c(C)c1Br	-12.9%	2.0
-4.9%	0.0%	CCn1c(SCC(=O)Nc2cccc(F)c2)nnc1-c1cc2cc(Br)ccc2o1	-4.3%	-3.2
.	-0.6%	O=C(CCNC(=O)c1ccco1)NCCc1c[nH]c2ccccc12	-15.7%	.
-34.5%	-0.5%	NC(=O)c1ccsc1NC(=O)COC(=O)c1ccccc1NCc1ccco1	-7.0%	18.5
-23.3%	-4.8%	O=C(OCC(=O)N1CCN(C(=O)c2ccco2)CC1)c1cccc(O)c1	-7.7%	.
2.6%	-1.8%	Cc1ccc(-n2c(SCC(=O)NCc3ccco3)nc3sc4c(c3c2=O)CC(C)(C)SC4)cc1	-10.5%	8.2
-7.7%	1.7%	Cc1cc(C(=O)N2CCN(c3ncccn3)CC2)c(C)o1	15.7%	1.2

High-throughput results: PubChem, National Center for Advancing Translational Sciences (NCATS)

Not all compounds are listed; count on the stated rates, not on these rows.
